Source: PubChem BioAssay
Autofluor counter: flagged as autofluorescent in microsphere protease counterscreen; AID 624483; compound autofluorescence counterscreen, microsphere flow cytometry; hits give high values; fluorescence intensity (no concentration beside the values); actives 3.1% (n = 360,000);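 active = at least 3 SD above the mean of all compounds, about 16000 in these data; inconclusive = too few beads counted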;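 also: 100 nL of 1 mM stock went into each well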
PrP UTR inh: suppresses PrP 5' UTR mRNA reporter expression; cell-based PrP 5' UTR mRNA reporter, plate reader; inhibition, % (test concentration not listed); actives 0.35% (n = 340,000); AID 488862;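 active = every replicate at 50% or more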;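 also: 0 = median of the neutral control wells; tested in H4 reporter cells; numbers are from one replicate; inactives centre near -14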
Sa RN4220 lethal: kills Staphylococcus aureus RN4220; actives 0.33% (n = 330,000); inhibition, % (test concentration not listed); S. aureus RN4220 growth, OD600, 16 h;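 active = z-score of -3 or lower and OD600 up to 0.18 on both plates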;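 also: plate controls were untreated cells for no effect and reference antibiotic for full effect; stock transfer was 100 nL into about 80 µL; one replicate is shown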
Sa ugtP lethal: compounds lethal to S. aureus RN4220 ugtP deletion mutant; growth inhibition, % (test concentration not listed); actives 0.54% (n = 330,000); OD600 growth, 16 h; some inactives read as strong as hits;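 active = z-score under -3 and OD600 up to 0.15 on both plates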;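 also: plate controls were untreated wells for no effect and antibiotic for full effect; wells of about 80 µL received 100 nL stock; the first replicate is given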
Mtb hypoxia rep: Mtb hypoxia fluorescent reporter inhibition. M. tuberculosis hypoxia-regulated fluorescent reporter, fluorescence. fluorescence inhibition, % (concentration not given with the values). actives 0.1% (n = 300,000);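 active = 35 to 45% if threefold the growth effect, above 45% if 1.5-fold the growth effect; inactive = the rest, general growth blockers included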;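 also: wells of about 50 µL received 100 nL stock; 0% = vehicle wells and 100% = reference inhibitor wells; whole bacteria with a GFP reporter of the hypoxia response; strong numbers were not always called active; many hits fall short of the cut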
BJeLR viability: kills HRASV12-expressing BJeLR cells; BJeLR (HRASV12) viability, CellTiter-Glo ATP luminescence, 48 h; reference of the scale not given here; inhibition, % (concentration not given with the values); actives 0.17% (n = 300,000); AID 1554;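 active = replicate mean above 50%; inconclusive = above 50% but judged a plate artefact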;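 also: 50 nL library stock added to about 25 µL; numbers are from one replicate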
Mtb hypoxia rep growth: recorded beside Mtb hypoxia rep, whose call it bears; growth inhibition, %; measured here: M. tuberculosis growth (absorbance);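 0% = vehicle and 100% = reference antibiotic; read after six days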
* hit, by the source's call; ? = inconclusive; . = not tested or not shown; & = joins results of further samples.

SMILES	Autofluor counter	PrP UTR inh	Sa RN4220 lethal	Sa ugtP lethal	Mtb hypoxia rep	Mtb hypoxia rep growth	BJeLR viability
CCCc1nc(SCC(=O)c2ccc(OC)cc2)c2ccccc2n1	4279	-41	0.1	6	4	13	2
O=C(CN1CCCc2ccccc21)NCc1ccccc1Cl	7023	-17	0.6	1	4	2	-6
O=C(Cc1ccc2c(c1)CCCC2)Nc1ccccc1Br	9537	-31	-1.4	17	3	-2	-1
O=C(OCN1C(=O)c2ccccc2C1=O)/C(=C\c1ccco1)NC(=O)c1ccccc1	9087	-15	4.9	-4	10	7	-1
O=C(c1ccco1)N1CCN(C(=O)c2cc3c(=O)oc4ccccc4c3s2)CC1	3704	-19	1.4	6	.	.	-7
CC(=O)Nc1ccc(S(=O)(=O)Nc2ccc(C)c([N+](=O)[O-])c2)cc1	4072	-22	3.1	6	3	10	7
Cc1cc2c(c(SCC(=O)NCc3ccccc3Cl)n1)C(=O)OC2	4096	-4	2.8	4	12	6	10
CN(CC1CCCN(CCc2cccc(C(F)(F)F)c2)C1)C(=O)c1ccc2nc[nH]c2c1 (configuration not stated)	5961	0	1.2	0	13	3	-2
CCCCc1nc2ccccc2c(NC(=O)CN(CC)CC)c1CCC	4377	-13	3.1	0	.	.	-12
NN=C(c1ccccc1)c1ccccc1	.	.	7.6	40	6	4	-4
CC12CCC(C(=O)Nc3ccc(SC(F)F)cc3)(CC1=O)C2(C)C (configuration not stated)	12822	-5	-3.1	-2	-3	1	-7
O=C(COC(=O)C12CC3CC(CC(C3)C1)C2)Nc1ccc([N+](=O)[O-])cc1Br	2033	1	5.7	5	.	.	-18
Cn1c(=O)n(C)c2cc(S(=O)(=O)N3CCCc4ccccc43)ccc21	7819	.	10	9	5	1	10
O=C1CCCC=CCC(CC(=O)N(CCO)Cc2ccccc2)C(=O)N2CCCC2CO1 (configuration not stated)	.	.	4.8&8.1	-7&-7	11&9	6&9	.
COC(=O)C1=C(C)n2nnnc2NC1c1cc2ccccc2o1 (configuration not stated)	17991*	12	6.3	0	-1	0	-1
COc1cccc(NC(=O)CN(C)C(=O)c2ccc(OCc3ccccc3)c(OC)c2)c1	5859	0	-0.8	-1	0	10	-13
Fc1cccc2ncnc(OCc3ccccc3)c12	2384	-7	5.4	-6	14	1	10
COc1ccc(CCNCc2ccc(OCC(=O)N3CCCCC3)c(OC)c2)cc1OC	4193	-4	3.1	8	16	3	1
CCn1c(C)nc2cc(C(=O)NN=C(C)c3ccccc3O)ccc21	.	.	4.3	12	-3	-5	.
O=C(Nc1ccccc1C(=O)NCc1ccccc1)c1ccco1	4060	0	2.1	-3	.	.	-3
CC(C)(C)Cc1nc(-c2ccccn2)no1	2446	-46	-8.3	11	.	.	-4
Cc1ccc(S(=O)(=O)Nc2ccc(N(C)S(=O)(=O)c3ccc(C)cc3)cc2)cc1	6081	-25	2.0	29	13	4	-14
O=C1/C(=C/c2cccnc2)Sc2ccccc21	?	-7	.	.	.	.	-7
CC1(c2nnc(-c3ccncc3)o2)CC(c2ccc([N+](=O)[O-])cc2)=NO1 (configuration not stated)	2439	14	7.4	9	17	10	1
COc1ccc(N2CC(NC(=O)N3CCN(C(=O)c4ccco4)CC3)CC2=O)cc1OC (configuration not stated)	5969	-17	4.3	13	4	0	-2
CC(=O)N[C@@H](C)c1nc2ccccc2n1CCCN1CCN(c2nc(-c3ccc(C)cc3)cs2)CC1	4133	-22	.	.	.	.	-8
O=C(N1CCCCC1)C1(c2ccccc2)CCOCC1	2375	-17	0.6	10	8	0	1
COc1cccc2cc(-c3ccnc(N)n3)oc12	4407	-43	.	.	.	.	8
CC1CCCC(C)N1CCNC(=O)Nc1ccc(Cl)cc1 (configuration not stated)	22625*	-30	-1.6	-18	2	4	-4
CC1=CC2CC1C1C(=O)N(c3ccc(S(=O)(=O)Nc4nc(C)cc(C)n4)cc3)C(=O)C21 (configuration not stated)	9609	-1	4.7	3	-1	-4	-5

Part of the list above in order of SMILES length, falling:
SMILES	Autofluor counter	PrP UTR inh	Sa RN4220 lethal	Sa ugtP lethal	Mtb hypoxia rep	Mtb hypoxia rep growth	BJeLR viability
CC1=CC2CC1C1C(=O)N(c3ccc(S(=O)(=O)Nc4nc(C)cc(C)n4)cc3)C(=O)C21 (configuration not stated)	9609	-1	4.7	3	-1	-4	-5
O=C(COC(=O)C12CC3CC(CC(C3)C1)C2)Nc1ccc([N+](=O)[O-])cc1Br	2033	1	5.7	5	.	.	-18
Cc1ccc(S(=O)(=O)Nc2ccc(N(C)S(=O)(=O)c3ccc(C)cc3)cc2)cc1	6081	-25	2.0	29	13	4	-14
COc1ccc(N2CC(NC(=O)N3CCN(C(=O)c4ccco4)CC3)CC2=O)cc1OC (configuration not stated)	5969	-17	4.3	13	4	0	-2
COc1cccc(NC(=O)CN(C)C(=O)c2ccc(OCc3ccccc3)c(OC)c2)c1	5859	0	-0.8	-1	0	10	-13
O=C1CCCC=CCC(CC(=O)N(CCO)Cc2ccccc2)C(=O)N2CCCC2CO1 (configuration not stated)	.	.	4.8&8.1	-7&-7	11&9	6&9	.
CC12CCC(C(=O)Nc3ccc(SC(F)F)cc3)(CC1=O)C2(C)C (configuration not stated)	12822	-5	-3.1	-2	-3	1	-7
Cc1cc2c(c(SCC(=O)NCc3ccccc3Cl)n1)C(=O)OC2	4096	-4	2.8	4	12	6	10
CCCc1nc(SCC(=O)c2ccc(OC)cc2)c2ccccc2n1	4279	-41	0.1	6	4	13	2
CCCCc1nc2ccccc2c(NC(=O)CN(CC)CC)c1CCC	4377	-13	3.1	0	.	.	-12
O=C(Cc1ccc2c(c1)CCCC2)Nc1ccccc1Br	9537	-31	-1.4	17	3	-2	-1
O=C(CN1CCCc2ccccc21)NCc1ccccc1Cl	7023	-17	0.6	1	4	2	-6
O=C1/C(=C/c2cccnc2)Sc2ccccc21	?	-7	.	.	.	.	-7
Fc1cccc2ncnc(OCc3ccccc3)c12	2384	-7	5.4	-6	14	1	10

Later entries.
SMILES	Autofluor counter	PrP UTR inh	Sa RN4220 lethal	Sa ugtP lethal	Mtb hypoxia rep	Mtb hypoxia rep growth	BJeLR viability
Cc1cc(C)nc(NS(=O)(=O)c2ccc(NC(=O)c3ccc(N4C(=O)CCC4=O)cc3)cc2)n1	2057	-8	1.1	10	13	1	-17
COc1ccc(OC)c(C(=O)c2c(C)oc3cc(Br)c(O)c(CN(C)C)c23)c1	.	.	2.4	-1	3	10	1
Cc1nnc(SCC(=O)Nc2ccc(S(=O)(=O)N3CCCC3)cc2)n1N	3601	-68	5.2	2	0	5	0
CC(C)(C)c1ccc(C(=O)NCCC(=O)Nc2ccc3c(c2)OCCO3)cc1	?	-19	3.2	9	8	-1	.
CCOC(=O)C1=C(CC)Nc2ccccc2N=C1NC(=O)c1cccc(S(=O)(=O)N2CCOCC2)c1	.	-19	3.1	6	13	8	.
COc1ccc(N(CC(=O)Nc2cccc(C(=O)O)c2)S(=O)(=O)c2c(C)noc2C)cc1	10774	-30	2.1	1	8	6	.
O=C(Cn1c(=O)[nH]c2ccsc2c1=O)N1CCN(c2ccc(F)cc2)CC1	.	.	-0.1	6	1	4	1
O=C(CNC(=O)c1ccccc1)NCC(=O)OCC(=O)c1ccc([N+](=O)[O-])cc1	2469	-20	6.3	-4	-4	3	-6
O=C(NCc1cccs1)c1cccc(Nc2nc3ccc(Br)cc3[nH]2)c1	4275	-17	-1.0	-5	8	-9	-3
CC1CCCC(NC(=O)CSc2ncccc2C(=O)O)C1C (configuration not stated)	2860	-28	-5.5	-5	12	9	0
Cc1sc2nc(CN3CCCC3)nc(N3CCC(C(N)=O)CC3)c2c1C	2409	-26	-2.2	-6	.	.	-2
COc1cc(/C=C(\CC(=O)O)c2nc3ccccc3s2)cc(OC)c1O	4659	3	-4.0	-43	13	-1	-4
O=C(Nc1cccc(-c2nc3cc(Cl)ccc3o2)c1)C1CCCO1 (configuration not stated)	12116	-27	-0.4	-11	2	8	-7
COC(=O)/C=C1/N/C(=N\c2nc(C)cc(C)n2)N(c2ccccc2)C1=O	2475	-8	-0.1	1	8	8	-2
COc1ccccc1OCCNC(=O)Cc1ccc(S(=O)(=O)N2CCOCC2)s1	?	7	1.6	5	-1	0	-11
COC(=O)CN(c1cccc(C(C)=O)c1)S(C)(=O)=O	7868	-4	3.0	6	10	2	7
CCCNC(=S)NC1CC2CCC(C1)N2Cc1ccccc1 (configuration not stated)	8119	-25	3.5	2	18	7	-12
Cc1cc(C)c(NC(=O)CSc2nc3ncc(Br)cc3[nH]2)c(Cl)c1	4095	-12	3.7	6	3	-8	3
CC(=O)Nc1nnc(COc2ccccc2)s1	2692	-36	6.5	7	14	1	5
COC(=O)c1ccc(S(=O)(=O)N2CCOCC2)o1	4398	-12	3.1	9	2	-6	-3
Cc1ccc(NC(=O)/C(C#N)=C/c2ccc(C)s2)c(C)c1	3253	-67	0.6	2	13	11	-10
CC[n+]1ccc(C)c2cc(P(=O)(c3ccccc3)c3ccccc3)ccc21	4409	-18	-1.5	-5	8	25	1
CC(C(=O)NCc1ccc2c(c1)OCO2)N(c1ccccc1)S(C)(=O)=O (configuration not stated)	9873	-24	3.8	0	8	14	-20
O=C(NCCc1ccccc1)c1ccc(Cl)c(S(=O)(=O)N2CCCC2)c1	4545	-31	-4.5	-7	-3	-5	6
CN(C)c1ccc(C(C#N)c2ccccc2)nn1 (configuration not stated)	2747	-20	7.8	8	9	4	2
Cc1cc(NC(=O)C(C)SCC(=O)N(C)CC(=O)Nc2ccccc2C(F)(F)F)no1 (configuration not stated)	5681	-11	2.1	0	2	-2	.
COCCNC(=O)C1=C(N)C(C(=O)Nc2ccc(C)c(S(=O)(=O)N3CCCCC3)c2)SC1=Nc1ccc(C)cc1C (configuration not stated)	6842	-12	0.5	-20	-5	-5	-7
CCCCN1CCNCC1c1ccccc1 (configuration not stated)	.	.	0.7	-6	0	3	.
COc1cc(OC)cc(C(=O)NNC(=O)CN2C(=O)NC(C)(c3ccc(C)cc3)C2=O)c1 (configuration not stated)	.	-13	2.5	-2	1	3	-9
CC(C)c1cccc(C2=CC(=O)C[C@H](c3ccc4c(c3)OCO4)C2)c1	4111	-15	-21	44	2	8	.

Fetched by compound from above, three records:
SMILES	Autofluor counter	PrP UTR inh	Sa RN4220 lethal	Sa ugtP lethal	Mtb hypoxia rep	Mtb hypoxia rep growth	BJeLR viability
Cc1cc(NC(=O)C(C)SCC(=O)N(C)CC(=O)Nc2ccccc2C(F)(F)F)no1 (configuration not stated)	5681	-11	2.1	0	2	-2	.
CCCNC(=S)NC1CC2CCC(C1)N2Cc1ccccc1 (configuration not stated)	8119	-25	3.5	2	18	7	-12
COC(=O)c1ccc(S(=O)(=O)N2CCOCC2)o1	4398	-12	3.1	9	2	-6	-3

New compounds follow.
SMILES	Autofluor counter	PrP UTR inh	Sa RN4220 lethal	Sa ugtP lethal	Mtb hypoxia rep	Mtb hypoxia rep growth	BJeLR viability
Clc1ccccc1CNc1nc2ccccc2n2cnnc12	3513	-4	5.2	14	-2	2	16
Cn1nccc1C(=O)N1CCC2(CC1)OCCO2	5293	-18	4.2	13	6	0	3
Nc1nc(C(F)(F)F)c(Br)c(=O)n1N	5185	-25	4.9	3	3	0	-1
Cc1nc(C=CC(=O)O)c2cc(C)oc2n1	.	.	9.8	-1	13	2	.
CCN(CC(=O)Nc1ccc(N2CCOCC2)cc1)C(=O)c1ccc(C#N)cc1	4340	-18	9.8	7	-14	-1	-18
CCOC(=O)C1=CCC(c2cc3ccc(OC)cc3n2C)N(S(=O)(=O)c2ccc(C)cc2)C1C(=O)OCC (configuration not stated)	.	.	11	-2	6	4	.
COc1ccc(C(=O)N2CCN(C(=O)C3COc4ccccc4O3)CC2)cc1 (configuration not stated)	5457	-10	2.1	1	11	4	0
CCN(C(=O)COC(=O)CCS(=O)(=O)c1ccccc1)c1c(N)n(Cc2ccccc2)c(=O)[nH]c1=O	3424	-9	0.8	5	-6	1	.
CCC1CCC(C(=O)NNC(=O)c2cc(-c3ccco3)[nH]n2)CC1 (configuration not stated)	3442	-3	.	.	.	.	2
CCOC(=O)c1c(C)n(CCNC(C)=O)c2ccc(OC)cc12	4462	-16	3.7	0	9	7	6
COc1ccc(NC2=CC(c3ccc(F)cc3)N(c3ccc(OC)cc3)C2=O)cc1 (configuration not stated)	9431	-19	1.7	17	-7	-1	-9
Cc1cnc(C(=O)Oc2cccc(Cl)c2Cl)cn1	6573	12	2.4	0	12	-6	15
